Screening data as filed in PubChem.
Yeast UUG start: modulators of start codon recognition fidelity in yeast | S. cerevisiae UUG-firefly luciferase reporter, luminescence/redox ratio | activity score, % at 18.7 µM | 350,000 compounds, 0.13% hits | AID 602363;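 active means replicate mean at a twofold rise or more, about +100% in these data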;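 further: firefly luciferase made from a UUG start codon reports start codon fidelity; reporter light over untreated wells divided by growth signal over untreated wells; some hits fall short of that in this replicate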
CSC inhib: cancer stem cell inhibition. inhibition, % at 7.5 µM. 300,000 compounds, 1.1% hits. cancer stem cell-like cells viability, luminescence;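 active means mean at 75% or more and at least half the replicates too; inconclusive means mean and replicates disagree; tested in HMLE shEcad cells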;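 further: 0% = median of negative and 100% = median of positive control wells; the first replicate is given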
HIV Env fusion: inhibitors of HIV Env-mediated cell fusion; HeLa-JRFL Env/CEM21 cell fusion, luciferase; inhibition, % at 12.3 µM; 360,000 compounds, 1.1% hits;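 active means mean replicate inhibition score of at least 50 and every replicate individually at or above 50; inconclusive means only one of the two criteria met; inactive means mean below 50 and not all replicates reaching 50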;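 further: 0% = plate neutral controls and 100% = maraviroc near 300 nM; one replicate is shown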
MT1-MMP act inh: inhibitors of human MT1-MMP activation; P50281; HT1080 RFP-PRO-GFP cells, GFP/RFP ratio fluorescence, overnight; percent of plate control window, DMSO zero; GFP/RFP ratio change, % at 20 µM; 360,000 compounds, 0.061% hits;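 active means GFP/RFP ratio change of at least 30% with cell ATP level not reduced by more than half and red fluorescence within 50% of control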; further: strong numbers were not always called active
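Compound: 20 µM single dose, 1% DMSO / System: HT1080 RFP-PRO-GFP cells / Controls: DMSO and RFP-L50D-GFP cell wells / Read-out basis: GFP/RFP fluorescence ratio / Schedule: overnight compound exposure at 37 °C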
PABP FP inh: blocks human PABP binding to poly(A) RNA; fluorescence polarization; inhibition, % at 35 µM; 290,000 compounds, 1% hits; AID 2014;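 active means 50% or more with normal probe brightness, or confirmed in later tests; inconclusive means above 50% with abnormal brightness, or retests that disagree; inactive means below 50% or failed in later tests; about a fifth of its hits are not listed in these tables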;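 further: calls also rest on retests at 20 µM and on dose response follow-up; controls were probe without protein and protein plus probe with vehicle; some compounds called inactive have numbers as strong as hits; many hits fall short of the cut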
Rce1 inhib: inhibitors of yeast Ras-converting enzyme. Q03530. yeast membranes, quenched prenylated peptide cleavage fluorescence. calls only. 290,000 compounds, 0.27% hits. AID 2563;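 active means fall in fluorescence gain of 50% or more versus controls, with final raw signal at or below 3038400; inconclusive means same 50% fall but final raw signal above 3038400; inactive means fall in fluorescence gain under 50%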;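 further: plate controls were neutral control wells for no effect and wells lacking membranes for full effect; tested at 10 µM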
Target sequence (Q03530 whole entry, looked up): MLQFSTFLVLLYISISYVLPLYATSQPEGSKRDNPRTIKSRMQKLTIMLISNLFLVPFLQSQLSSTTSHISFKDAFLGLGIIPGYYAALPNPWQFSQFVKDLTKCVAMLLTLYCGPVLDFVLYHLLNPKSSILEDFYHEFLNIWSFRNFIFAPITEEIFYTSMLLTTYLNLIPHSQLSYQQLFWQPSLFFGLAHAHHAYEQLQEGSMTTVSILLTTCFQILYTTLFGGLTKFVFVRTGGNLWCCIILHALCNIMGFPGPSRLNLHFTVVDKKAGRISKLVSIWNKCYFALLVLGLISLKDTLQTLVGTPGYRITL
eIF4H inh: inhibitors of RNA binding by human eIF4H; 290,000 compounds, 0.94% hits; inhibition, % at 35 µM; eIF4H fluorescence polarization binding assay; Q15056; AID 2012;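 active means 50% or more with normal probe brightness, or confirmed in later tests; inconclusive means above 50% with abnormal brightness, or retests that disagree; inactive means below 50% or failed in later tests; about a fifth of its hits are not listed in these tables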;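 further: calls also rest on retests at 20 µM and on dose response follow-up; 0% = protein and probe with vehicle and 100% = probe without protein; strong numbers were not always called active; many hits fall short of the cut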
eIF4H inh retest: also measured in eIF4H inh; calls as there; inhibition, %; compound at 20 µM; confirmation average;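 mean of two retest wells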
PABP FP inh retest: recorded beside PABP FP inh, whose call it bears; inhibition, %; compound at 20 µM; confirmation repeats;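 mean of two retest wells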
MT1-MMP act inh RFP: also measured in MT1-MMP act inh; calls as there; RFP signal change, %; measured here: RFP expression control read;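 0 = vehicle wells; hits needed this value within 50% of zero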
* hit, by the source's call; i = inactive; ? = inconclusive; · = no result given. Not a hit list; about 3% have a hit in one of these screens.

SMILES	Yeast UUG start	CSC inhib	HIV Env fusion	MT1-MMP act inh	MT1-MMP act inh RFP	PABP FP inh	Rce1 inhib	eIF4H inh	others
O=C(CCC1CCCN(C(=O)c2cccs2)C1)N1CCN(c2ccccn2)CC1 (configuration not stated)	·	-6	5	-1	0	10	i	-14
COc1ccc(OC)c(N(CC(=O)NC2CC2)S(=O)(=O)c2ccc(C)cc2)c1	-7	-11	-50	2	1	-7	i	9
CN(C)/C=C(/C(=O)c1ccc(Cl)c(Cl)c1)S(C)(=O)=O	-12	-10	-3	-1	0	3	i	7
COCCn1c(=S)[nH]c2cc(C(=O)NCc3ccccc3)ccc2c1=O	-2	·	-29	5	-1	·	·	·
COC(=O)CCN(C(=O)C12CC3CC(CC(C3)C1)C2)c1ccccn1	-2	1	·	0	-1	-6	i	0
COc1ccc(C(=O)OCc2cc(=O)oc3c(C)c(C)ccc23)cc1S(=O)(=O)N1CCOCC1	-4	·	-15	1	1	·	·	·
CC(C)CC(C(=O)Nc1ccccc1)N1C(=O)C2C3C=CC(C3)C2C1=O (configuration not stated)	1	·	10	4	3	-5	i	2
CN(C)S(=O)(=O)c1cccc(NC(=S)N/N=C/c2ccc(O)c(O)c2O)c1	-31	·	0	-4	2	35*	i	57*	eIF4H inh retest=97*;PABP FP inh retest=82*
CNC(=O)c1ccc(N(Cc2ccccc2)S(C)(=O)=O)cc1	-18	-7	·	-8	1	-5	i	5
CC(Sc1nn(-c2ccccc2)c(=S)s1)C(=O)NCC1CCCO1 (configuration not stated)	-22	·	7	2	3	·	·	·
Cc1ccc(C(=O)OCC(=O)Nc2c(Cl)cc(S(N)(=O)=O)cc2Cl)o1	-7	·	7	1	1	16	i	13
CN(C(=O)c1cc2n(n1)C(C(F)(F)F)CC(c1ccco1)N2)c1ccc(OC(F)(F)F)cc1 (configuration not stated)	-10	0	-86	-7	-2	2	i	11
CCOc1ccc2nc(SCC(=O)NNC(=O)c3ccco3)c(C)cc2c1	-20	-9	24	2	3	9	i	-2
O=C(OC(C(=O)NCC1CCCO1)c1ccc(F)cc1)c1ccco1 (configuration not stated)	-7	1	-69	5	5	-4	i	0
O=C(c1ccc2c(=O)n(Cc3ccccc3)c(=S)[nH]c2c1)N1CCOCC1	-19	-10	14	1	-6	-5	·	-7
CC(OC(=O)C1=NNC(=O)CC1)C(=O)Nc1ncc(Cl)cc1Cl (configuration not stated)	·	-11	-9	0	6	2	i	-14
O=C(NC(Cc1ccccc1)C(=O)O)/C(=C/c1ccccc1)NC(=O)c1ccco1 (configuration not stated)	1	4	-17	2	4	-1	·	-1
CCOC(=O)c1c(C)c(C(=O)NCCCOC(C)C)c(C)n1C	-2	-8	·	2	2	-2	i	-2
COc1ccc(Nc2oc(COc3ccc(C)cc3)nc2C#N)cc1	-10	-5	?	2	-5	-9	i	0
COc1ccc2c(Cl)c(C(=O)NCCCn3ccnc3)sc2c1Cl	·	61	·	11	0	-41	i	-23
COc1cccc(CC(=O)NC2CCCN(Cc3ccc(Cl)cc3)C2)c1 (configuration not stated)	-10	-5	0	3	1	-2	i	-4
Cc1nnsc1C(=O)NNc1c(Cl)cccc1Cl	0	23	-1	3	5	0	i	1
CCCC(=O)NC(=S)NNC(=O)c1ccc([N+](=O)[O-])cc1	·	-10	6	5	6	-2	i	1
COc1ccc(CCC(=O)NCCOc2ccccc2Cl)cc1	·	-11	-18	3	4	·	i	·
Cc1nc(SCC(=O)Nc2ccccc2)c2oc3ccccc3c2n1	8	·	·	-7	-2	-2	i	8

Among those listed so far, seven have a Cl atom:
SMILES	Yeast UUG start	CSC inhib	HIV Env fusion	MT1-MMP act inh	MT1-MMP act inh RFP	PABP FP inh	Rce1 inhib	eIF4H inh	others
CN(C)/C=C(/C(=O)c1ccc(Cl)c(Cl)c1)S(C)(=O)=O	-12	-10	-3	-1	0	3	i	7
Cc1ccc(C(=O)OCC(=O)Nc2c(Cl)cc(S(N)(=O)=O)cc2Cl)o1	-7	·	7	1	1	16	i	13
CC(OC(=O)C1=NNC(=O)CC1)C(=O)Nc1ncc(Cl)cc1Cl (configuration not stated)	·	-11	-9	0	6	2	i	-14
COc1ccc2c(Cl)c(C(=O)NCCCn3ccnc3)sc2c1Cl	·	61	·	11	0	-41	i	-23
COc1cccc(CC(=O)NC2CCCN(Cc3ccc(Cl)cc3)C2)c1 (configuration not stated)	-10	-5	0	3	1	-2	i	-4
Cc1nnsc1C(=O)NNc1c(Cl)cccc1Cl	0	23	-1	3	5	0	i	1
COc1ccc(CCC(=O)NCCOc2ccccc2Cl)cc1	·	-11	-18	3	4	·	i	·

The listing picks up with the two entries that preceded the break.
SMILES	Yeast UUG start	CSC inhib	HIV Env fusion	MT1-MMP act inh	MT1-MMP act inh RFP	PABP FP inh	Rce1 inhib	eIF4H inh	others
COc1ccc(CCC(=O)NCCOc2ccccc2Cl)cc1	·	-11	-18	3	4	·	i	·
Cc1nc(SCC(=O)Nc2ccccc2)c2oc3ccccc3c2n1	8	·	·	-7	-2	-2	i	8
COc1ccccc1CN(CC(=O)NCc1ccco1)C(=O)CNS(=O)(=O)c1ccccc1	83	-9	·	-3	3	5	i	6
CC1=NN(c2ccccc2)C(=O)C1N=Nc1ccc(N)cc1 (configuration not stated)	5	60	·	53*	-2.1*	-6	i	-7
CC12CCC(C(=O)Nc3ncc([N+](=O)[O-])s3)(OC1=O)C2(C)C (configuration not stated)	-12	3	·	-2	-7	1	i	8
COc1cccc(NS(=O)(=O)c2cc3c(cc2C)NC(=O)CO3)c1	-11	1	1	-3	-3	-2	i	1
O=c1cc(CN2CCN(c3cccc(C(F)(F)F)c3)CC2)nc2sccn12	·	-20	15	·	·	13	i	-9
Oc1cncc(-c2cccnc2)c1	0	-12	12	-3	-3	·	·	·
CCCc1nnc(NC(=O)CCS(=O)(=O)c2ccccc2)s1	-28	-3	2	0	2	6	·	24
COc1cc([N+](=O)[O-])ccc1NC(=O)Cc1ccc(F)cc1	·	-5	16	4	0	1	i	5
O=C(NCc1ccccc1)c1ccc(F)c(S(=O)(=O)N2CCOCC2)c1	13	14	1	5	10	0	i	-11
CCOC(=O)c1c(C)nc2c(c1C)/C(=N/O)CC(C)(C)C2	1	1	·	0	-9	-4	·	0
Cc1ccc(Cl)cc1N1CCN(C(=O)c2ccccc2SCC(=O)N2CCCC2)CC1	8	·	21	-2	-13	·	·	·
CCCn1c(=N)n(CC(=O)c2ccc([N+](=O)[O-])cc2)c2ccccc21	·	54	-9	3	-3	-3	i	-8
O=C(NCCc1ccccc1)C1CCCN1C(=O)NCc1ccccc1 (configuration not stated)	-5	-2	-49	-1	-1	-11	i	-9
COc1ccc(CCN2C(=O)CC(Cc3ccc(C)cc3)C2=O)cc1OC (configuration not stated)	·	-16	17	0	4	5	i	6
CCC(=O)N1CCN(c2ccc(Cl)cc2NC(=O)c2ccc(N3CCCC3)c([N+](=O)[O-])c2)CC1	-4	8	-23	10	-6	1	i	-5
O=C(c1ccco1)N1CCC2CC1c1c(Cl)cccc12 (configuration not stated)	-10	·	-5	2	-1	·	·	·
CCC(C)NC(=O)Cc1cn(C)c2ccccc12 (configuration not stated)	2	12	-21	-4	5	6	·	1
CCCCNC(=O)[C@@H]1CCCN1S(=O)(=O)c1cccc2cccnc12	-9	3	-10	-1	2	·	·	·
NS(=O)(=O)c1ccc(NS(=O)(=O)c2ccc(NC(=O)C3CC3)cc2)cc1	-20	-17	4	-1	2	-4	i	-10
COc1ccccc1N(C(=O)c1ccncc1)c1nc(-c2ccc([N+](=O)[O-])cc2)cs1	·	10	5	-49	-42	-3	i	0
Cc1nn(CC(=O)N2CCN(c3ccccn3)CC2)c(=O)c2cc3sccc3n12	-10	-14	·	3	5	3	i	11
O=C(O)c1ccc(NC(=S)NC2CCCCC2)cc1	-22	·	8	1	3	4	i	-14
O=C1OC(c2ccccc2)/C(=C(/O)c2ccc(Cl)cc2)C1=O (configuration not stated)	-9	5	-23	1	-2	-6	i	-10
COc1ccc(Oc2nc(C)cc(C)c2C#N)cc1	-4	-6	·	0	4	2	i	2
Cc1oc(-c2ccc(Cl)cc2)nc1CS(=O)CC(=O)NCCN1CCCC1 (configuration not stated)	-1	·	11	-4	4	6	i	0

Additional records follow.
SMILES	Yeast UUG start	CSC inhib	HIV Env fusion	MT1-MMP act inh	MT1-MMP act inh RFP	PABP FP inh	Rce1 inhib	eIF4H inh	others
CC(CN1CCNCC1)(NS(=O)(=O)c1ccccc1)c1ccccc1 (configuration not stated)	-1	-8	·	-9	-16	-3	i	4
O=C(COc1ccccc1[N+](=O)[O-])OCC(=O)c1ccc(Br)s1	-2	-9	-18	2	2	·	·	·
Cc1ccc(/C=N/Nc2ncc(Cl)cc2Cl)s1	·	47	·	0	-16	5	i	-13
Cc1nc2ccc(S(=O)(=O)NCC(=O)Nc3ccc(F)cc3)cc2s1	4	-6	6	2	3	-4	i	-11
Cc1ccc(C(C)C)c(OCC(=O)OCC(=O)c2c(N)n(C)c(=O)n(C)c2=O)c1	-13	0	·	0	0	·	·	·
CCN(CC)CC(=O)NN=C(c1ccccc1)c1ccccc1	1	-8	·	2	12	4	i	-7
CCn1nc(C)c(CNC(=O)CC2C(=O)NCCN2Cc2ccc(C)o2)c1C (configuration not stated)	·	-6	-4	-2	-1	10	i	-2
COc1cccc(C=CC(=O)C=CC=Cc2ccccc2)c1	-9	·	-22	-6	0	·	·	·
CCNc1nc(NCC)nc(N/N=C/c2ccc([N+](=O)[O-])o2)n1	-29	-1	-13	-8	-6	120	i	128	eIF4H inh retest=-2;PABP FP inh retest=8
COc1ccc(C2=NO[C@@H]3C(=O)N(C4CCCCC4)C(=O)[C@H]23)cc1OC	-12	-8	1	3	5	-2	i	-1
COc1ccc(CC2(C)OC(c3ccc(Cl)cc3)=NN2C(C)=O)cc1 (configuration not stated)	·	11	13	-2	-4	-1	i	5
COc1cccc(-c2nc(Cc3ccc(OC)c(OC)c3)no2)c1	-6	-9	·	1	-12	6	i	-4
CCOC(=O)c1ccc(COC(=O)c2ccc3c(c2)-c2ccccc2C3=O)cc1	-9	10	-49	7	0	-4	i	-13
Cc1ccc(N(C)S(=O)(=O)c2ccc(-c3ccc(=O)[nH]n3)s2)cc1C	-13	-10	1	-7	0	3	i	-1
Oc1ccc(Br)cc1/C=N/N1CCCCC1	-6	17	-81	1	0	6	i	-10
CCNC(=S)N/N=C/c1ccc(OCC(=O)Nc2ccc(C)cc2)cc1	11	15	·	-10	-14	2	i	2
